Bioassay records as filed in PubChem BioAssay.
Calb FLC – affects C. albicans growth with fluconazole | growth inhibition, % (concentration not given with the values) | 300,000 compounds, 0.57% hits | C. albicans CaCi-2 (fluconazole-resistant clinical isolate) + fluconazole, Alamar Blue growth, 48 h | AID 1979;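 active = most replicates above 75%; inconclusive = exactly half above 75%; inactive = most below 75%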;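 note: all wells also contain fluconazole at 8 µg/ml as a sub-toxic cotreatment; 0% = median of DMSO wells and 100% = median of geldanamycin control wells; wells of about 8 µL received 7.5 nL stock; the first replicate is given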
T cruzi inh – blocks replication of Trypanosoma cruzi. T. cruzi beta-gal in NIH3T3, luminescence, 90 h. inhibition, % (concentration not given with the values). 300,000 compounds, 1.4% hits. AID 1885;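 active = mean inhibition across valid replicates above about 55%, limit read from the data; inconclusive = mean below that limit but half or more replicates reach it; inactive = mean below it, under half of replicates reach it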;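 note: signal also drops with host cell toxicity which is not excluded here; 0% = plate median of DMSO wells and 100% = zero luminescence signal; higher percent means less beta-gal luminescence so fewer parasites; stock transfer was 50 nL into about 50 µL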
Ecoli rRNA inh – selective bacterial rRNA inhibition in E. coli; E. coli WT GFP vs humanized-ribosome RFP mutants, fluorescence, 24 h; active compounds read low; DMSO median 0, no signal -100; GFP signal change (wild-type ribosome), % (no concentration beside the values); 350,000 compounds, 1.6% hits; AID 720706;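 active = significant combined selectivity score with lowered wild-type GFP, culture density cut under 30%, mutant RFP and density less affected; inactive = any of these conditions unmet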; note: one replicate is shown; some compounds called inactive have numbers as strong as hits
A1 inh – inhibitors of the anti-apoptotic protein A1, read as caspase activation; 330,000 compounds, 0.066% hits; caspase activation, % (concentration not given with the values); AID 2462; MEF A1-2A-BIM cells, Caspase-Glo 3/7 luminescence, 3 h; percent of clofoctol response, vehicle zero;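 active = over half of replicate activation scores above 10%, or exactly half above 10 with the replicate mean above 10; inconclusive = replicate mean below 10 yet half the replicates above 10; inactive = over half of replicates below 10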;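 note: wells of about 30 µL received 50 nL stock; many hits fall short of the cut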
MLL AF4-AF9 inh – MLL-AF4/AF9 protein interaction inhibition; P42568; AlphaScreen, biotin-AF4 peptide binding to FLAG-AF9; inhibition, % at 10 µM; 350,000 compounds, 0.47% hits;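 active = every replicate reaching a set inhibition limit, whatever the replicate mean, cut at about 25% in these data; inconclusive = mean inhibition reaches that limit but some replicates miss it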;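 note: 0% = plate neutral control median and 100% = total signal loss; the record names both 10 and 1 µM as test concentration; the first replicate is given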
Target sequence (P42568 whole entry, looked up): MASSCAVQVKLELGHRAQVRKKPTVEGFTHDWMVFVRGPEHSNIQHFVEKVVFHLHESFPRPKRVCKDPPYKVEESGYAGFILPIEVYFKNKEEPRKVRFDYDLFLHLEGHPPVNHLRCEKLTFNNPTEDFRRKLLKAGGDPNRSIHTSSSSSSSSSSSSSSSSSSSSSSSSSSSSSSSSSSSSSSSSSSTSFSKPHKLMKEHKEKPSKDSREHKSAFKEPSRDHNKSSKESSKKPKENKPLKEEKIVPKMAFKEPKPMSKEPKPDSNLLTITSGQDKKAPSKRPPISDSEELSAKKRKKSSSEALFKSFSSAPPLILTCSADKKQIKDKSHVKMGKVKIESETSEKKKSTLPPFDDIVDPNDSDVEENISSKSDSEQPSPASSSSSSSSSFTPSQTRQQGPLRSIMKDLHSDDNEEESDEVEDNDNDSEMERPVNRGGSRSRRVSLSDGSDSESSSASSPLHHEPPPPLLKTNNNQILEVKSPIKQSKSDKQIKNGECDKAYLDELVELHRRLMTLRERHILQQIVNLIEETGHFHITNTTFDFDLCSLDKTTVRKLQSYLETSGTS
Beta cell apopt – blocks beta cell apoptosis | INS-1E cytokine-induced death, ATP luminescence, 48 h; percent of positive-control rescue, neutral wells zero | protection from apoptosis, % (test concentration not listed) | 300,000 compounds, 0.8% hits | AID 435005;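 active = all replicates at 75% or more, or half of them and the mean; inconclusive = half reach 75% but not the mean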;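 note: 0% = cytokine-treated negative control wells and 100% = positive control rescue; higher means more ATP so stronger rescue from cytokine killing; wells of about 40 µL received 100 nL stock; the first replicate is given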
Vif A3G – HIV-1 Vif–A3G interaction blockers – biochemical, TR-FRET, GST-Vif 1-94, biotin-A3G peptide, dose response retest, primary screen (AID 1117319). inhibition, %, or IC50 in µM where a hit was titrated. 260,000 compounds, 0.57% hits. TR-FRET GST-Vif / biotin-A3G peptide binding; higher % means a stronger effect; test concentration not given here; strong numbers were not always called active;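 active = above the screen mean plus three standard deviations and confirmed in dose response; inconclusive = results disagree or hit not tested in dose response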;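 note: Vif residues 1-94 fused to GST binding biotinylated APOBEC3G peptide 110-148; 0% = full assay without inhibitor and 100% = GST in place of GST-Vif; retest series ran down from 100 µM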
RanGTP-Impb inh – inhibitors of RanGTP-importin-beta interaction, primary screen, biochemical, FRET, CFP-Ran, YFP-importin-beta, homogeneous; cell-free CFP-Ran/YFP-importin-beta FRET ratio; 300,000 compounds, 1.1% hits; AID 2216; inhibition, % (concentration not given with the values);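 active = most replicates above 15%; inconclusive = exactly half above 15%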;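 note: 0% = DMSO wells and 100% = Ran loaded with GDP instead of GTP; wells of about 40 µL received 100 nL stock; the first replicate is given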
Ecoli rRNA inh OD600 – second read-out of Ecoli rRNA inh, no call of its own (marks repeat the call); OD600 change, %; measured here: OD600 growth;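 optical density of the mix in the first replicate; 0 = DMSO median and -100 = no signal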
Ecoli rRNA inh RFP – recorded beside Ecoli rRNA inh, whose call it bears; RFP signal change, %; measured here: RFP humanized mutant strains;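 first replicate; 0 = DMSO median and -100 = no signal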
An asterisk follows results filed as active; ? = inconclusive; . = no result given; & = joins results of further samples. An excerpt; the hit share may differ from the screen's.

SMILES	Calb FLC	T cruzi inh	Ecoli rRNA inh	Ecoli rRNA inh OD600	Ecoli rRNA inh RFP	A1 inh	MLL AF4-AF9 inh	Beta cell apopt	Vif A3G	RanGTP-Impb inh
O=C(Nc1cccc(S(=O)(=O)N2CCOCC2)c1)C1CCCC1	.	.	3.9	11.1	7.4	-0.2	-1.0	-5.9	.	.
CN(C)c1ccc(/C=[N+](\[O-])C2N(c3ccccc3)C(=S)SC2(C)C)cc1 (centres undefined)	-4.1	3.1	5.9	9.5	-2.3	-0.1	-30.0	-5.5	-7.3%	-2.7
Cc1ccc(C(=O)NC2CCS(=O)(=O)C2)cc1S(=O)(=O)N1CCCCCC1 (centres undefined)	-5.6	-12.7	4.8	-7.0	-1.7	0.9	-12.0	2.7	10.1%	2.8
CCCN1Cc2cccc(C(=O)NCc3ccccc3OC)c2C1=O	18.7	20.7	.	.	.	0.6	.	-5.7	12.7%	3.2
Cc1cc(Cl)ccc1OCCCC(=O)OCC(=O)Nc1cccc(S(N)(=O)=O)c1	.	.	-53.0	-73.5	-13.8	-0.4	1.9	-5.9	.	.
Cc1cc(C(=O)NC2CCCc3c2cnn3-c2ccc(C(C)(C)C)cc2)nn1C (centres undefined)	-21.9	-1.2	-21.6	-35.3	6.3	1.4	2.1	54.1	.	-3.5
COc1ccc(-c2noc(CNC(=O)c3ccc4c(c3)OCO4)n2)cc1	-2.5	3.8	-3.6	-6.9	1.7	-0.1	-1.2	2.9	.	-1.0
Cc1ccc(C)c(OCCC(=O)OCC(=O)c2ccc3c(c2)NC(=O)CO3)c1	-4.7	-1.5	5.9	4.9	-0.4	-0.3	-5.1	-2.7	-4.4%	0.4
CCN(CC)S(=O)(=O)c1ccc(C(=O)Nc2ccc3c(c2)OCO3)cc1	3.4	-4.5	-27.1	-22.1	-3.9	-0.2	3.0	2.6	3.6%	-2.8
COc1ccc(NC(=O)CCN2CCOCC2)c(OC)c1	1.3	-9.8	-0.3	14.0	-1.1	0.0	-3.9	-5.8	.	-0.3
O=Cc1ccc(OCC(=O)NCC2CCCO2)cc1 (centres undefined)	20.5	-5.5	2.9	4.9	-0.5	0.2	-1.2	-2.5	.	2.1
C#CCNC(=O)C1=C[C@@H](C2CCCCC2)C[C@@H](OCCCCO)O1	-27.6	0.6	2.0	0.4	3.8	0.0	-1.9&-3.7	-1.5	.	-2.6
O=c1cc(-c2ccccc2)c2ccccc2[nH]1	8.4	-2.4	.	.	.	0.2	.	2.0	8.5%	0.9
CN(C)C(=O)NC(NC(=S)Nc1ccccc1)C(Cl)(Cl)Cl (centres undefined)	0.0	-17.3	-15.3	-15.7	-0.6	0.4	-5.7	-9.7	.	6.1
O=C(Nc1ccc(F)cc1)c1ccc(Cn2cnnn2)cc1	3.4	-14.9	6.6	18.5	0.7	-0.4	1.1	-1.1	5.5%	-1.6
CSc1nc(O)c(C(c2ccccc2)c2c(O)nc(SC)[nH]c2=O)c(=O)[nH]1	4.2	-21.7	10.9	7.5	0.4	-0.7	-0.1	0.4	.	2.3
Cc1ccccc1NC(=O)CCN1C(=O)c2ccccc2C1=O	-1.1	3.3	-3.0	4.1	-2.6	0.1	0.6	2.7	1.6%	0.8
Cc1c(C(=O)Nc2c(F)cccc2F)sc2ncn(CC(=O)N3CCCCC3)c(=O)c12	-0.4	17.7	-4.2	1.7	-0.3	0.4	-2.2	-5.5	-0.2%	1.0
NS(=O)(=O)c1ccc(N/N=C/c2cn(-c3ccccc3)nc2-c2cccs2)c([N+](=O)[O-])c1	-6.7	67.4*	-15.8	19.7	14.0	-0.2	-1.6	108.2*	-0.5%	1.9
COCCn1c(SCC(=O)Nc2cccc(NC(C)=O)c2)nc2c([nH]c3ccccc32)c1=O	.	-9.5	-3.6	7.5	-3.4	-0.4	-8.7	-1.3	-3.3%	.
Cc1c(NC(=O)c2ccccc2N)cccc1C(=O)O	-4.7	-21.4	.	.	.	-5.1	.	-11.0	-0.1%	0.8
CC(=O)C1=C(c2ccccc2)NC(=O)NC1c1ccc2c(c1)OCO2 (centres undefined)	-1.7	-1.2	6.7	-3.2	0.0	0.9	8.8	.	.	-0.6
CCCOc1ccc(N2CC(C(=O)NCCc3ccc(OC)c(OC)c3)CC2=O)cc1 (centres undefined)	-10.2	-19.3	-4.1	-0.9	0.6	-0.3	-1.4	0.3	1.9%	-4.5
COc1ccc(Nc2nc(C)cc(=O)[nH]2)cc1	-7.1	-9.5	.	.	.	0.8	.	-3.2	5.6%	?
CCOc1ccc(N2C(=O)CC(SC(=NC)Nc3cccc(F)c3)C2=O)cc1 (centres undefined)	9.6	18.7	.	.	.	-0.6	.	4.3	3.1%	-2.9

Next part.
SMILES	Calb FLC	T cruzi inh	Ecoli rRNA inh	Ecoli rRNA inh OD600	Ecoli rRNA inh RFP	A1 inh	MLL AF4-AF9 inh	Beta cell apopt	Vif A3G	RanGTP-Impb inh
CCCOc1ccc(CNC(=S)NCc2ccc(OC(C)C)cc2)cc1	-36.4	45.5	.	.	.	-0.5	.	-0.6	.	-0.4
Cc1ccccc1NC(=O)N1CCCN(c2ccc(C#N)cn2)CC1	-7.6	-3.4	4.3	2.5	-1.0	0.9	-1.4	-7.2	-0.5%	1.5
CN(C)CCOCCOc1ccc(Cl)cc1Br	?	64.3*	11.7	5.2	-3.5	-0.5	0.7	-6.1	.	-2.8
CCOCCCNC(=O)CN1C(=O)COc2ccc(S(=O)(=O)N3CC(C)CC(C)C3)cc21 (centres undefined)	-11.1	-4.6	-1.9	3.4	-2.0	-0.2	-3.7	0.1	.	-2.1
CCCCN1C(=S)NC[C@@H]1Cc1ccc(O)cc1	8.0	-14.0	-5.5	2.3	-2.4	0.4	0.0	-6.8	.	-1.3
CC1(C)OCC(C2CC(c3ccccc3)NS(=O)(=O)O2)O1 (centres undefined)	-0.6	6.7	11.5	10.8	1.7	0.3	1.5	-6.8	.	-0.3
Nc1[nH]n2c(=O)cc(-c3ccccc3)nc2c1N=Nc1ccc(S(N)(=O)=O)cc1	50.7	11.6	-23.7*	10.0*	-1.3*	-0.5	6.5	3.7	6.9%	?
Cc1c(-c2cc(C(=O)O)c3ccccc3n2)cnn1C	-2.3	-11.7	.	.	.	-0.1	-5.2	1.8	-6.2%	0.1
CCn1nnc(-c2ccccc2NS(=O)(=O)c2ccc(C(=O)OC)cc2)n1	3.7	2.0	.	.	.	-0.3	.	.	2.2%	-2.6
CC(C)(C)N(Cc1ccccc1)C(=O)c1cc2ccccc2o1	-4.3	19.9	10.8	6.3	-2.7	0.0	-1.5	-0.4	-1.8%	5.0
CCCNC(=O)C1(CC2CC(c3ccccc3)=NO2)CCNCC1 (centres undefined)	-12.0	-3.9	9.3	10.2	-2.5	-0.1	-1.3	-0.1	.	3.2
COc1ccccc1C(=O)Nc1ccc2c(c1)nc1n2CCN(C2CCCCC2)C1	25.2	14.3	-18.5*	-7.7*	3.4*	1.4	3.6	-2.6	6.7%	-2.6
CCOc1ccccc1C(=O)N1CCN=C1SC	-1.0	-5.2	.	.	.	0.0	.	-3.9	3.7%	-3.1
CC(C)n1nc(C(=O)NCCCN2CCCC2=O)c2ccccc2c1=O	0.6	-12.6	2.2	4.5	0.3	-0.9	-0.7	-0.7	.	0.3
COC(=O)c1nc(-c2ccc(C)cc2)oc1N(C)C	3.5	-2.9	.	.	.	0.3	.	3.3	26.1%	-2.7
Cc1ccc(S(=O)(=O)N2CCOCC2)cc1NC(=O)COC(=O)Cc1cccs1	-0.3	3.7	8.0	12.3	5.5	0.2	1.0	-3.7	5.8%	4.2
O=C(NCc1ccco1)c1cnn2c(C(F)(F)F)cc(-c3cccs3)nc12	2.6	20.4	.	.	.	0.0	.	18.6	23.8%	?
NS(=O)(=O)c1cccc(NC(=O)CC2(CC(=O)O)CCCC2)c1	-1.4	-0.9	11.3	10.2	-1.1	1.3	0.2	1.4	.	6.7
Cc1nc(N2N=C(c3ccc(Cl)cc3)CC2c2ccco2)sc1C(=O)N(C)C (centres undefined)	-27.9	5.7	-25.4	-33.9	2.4	0.8	-28.2	-1.1	2.7%	?
CC1CCc2nn(CC(=O)Nc3ccc(F)cc3F)cc2C1 (centres undefined)	-2.4	-9.0	-0.7	0.4	1.1	0.3	-0.6	-4.1	13.3%	-1.9
CCCn1c(SCC(=O)Nc2cc(Cl)ccc2Cl)n[nH]c1=O	-16.1	?	.	.	.	1.0	-0.2	-9.1	-2.5%	-3.2
COc1cc([N+](=O)[O-])c(N2CCOCC2)c([N+](=O)[O-])c1OC	19.7	75.4*	3.3	8.9	-0.6	0.7	1.6	-8.8	94.2%	-1.4
CN(C)CCNc1c(N)c(=O)oc2ccccc12	13.1	9.6	12.7	9.6	0.6	-0.1	-0.8	0.2	22.8%	4.1
O=C(NCc1ccon1)C1CCC(=O)N(CCc2cccc(F)c2)C1 (centres undefined)	-10.5	-6.3	3.4	12.8	0.7	.	-1.3	.	.	2.1
Cc1ccc(S(=O)(=O)CC(=O)c2ccccc2[N+](=O)[O-])cc1	5.4	-6.4	-1.9	-0.2	-2.6	1.2	2.7	.	2.4%	4.2
Cc1nc2ccccc2n1-c1nc(-c2ccco2)cc(C(F)(F)F)n1	14.6	-11.8	.	.	.	0.2	.	131.0*	-1.3%	1.9
Cc1ccc(S(=O)(=O)N(C)C)cc1NC(=O)COC(=O)COc1ccc2c(c1)CCC2	3.1	-5.4	3.8	10.4	0.7	-0.5	0.0	-7.7	-8.1%	-4.5
c1ccc(-n2nc3ccccc3n2)cc1	3.9	-12.6	.	.	.	-1.2	.	3.5	-8.3%	-1.0

Record cards, as listed above. Values in the order: Calb FLC, T cruzi inh, Ecoli rRNA inh, Ecoli rRNA inh OD600, Ecoli rRNA inh RFP, A1 inh, MLL AF4-AF9 inh, Beta cell apopt, Vif A3G, RanGTP-Impb inh
CC1CCc2nn(CC(=O)Nc3ccc(F)cc3F)cc2C1 (centres undefined) in the list: -2.4, -9.0, -0.7, 0.4, 1.1, 0.3, -0.6, -4.1, 13.3%, -1.9
Cc1ccc(S(=O)(=O)N2CCOCC2)cc1NC(=O)COC(=O)Cc1cccs1 in the list: -0.3, 3.7, 8.0, 12.3, 5.5, 0.2, 1.0, -3.7, 5.8%, 4.2
NS(=O)(=O)c1cccc(NC(=O)CC2(CC(=O)O)CCCC2)c1 in the list: -1.4, -0.9, 11.3, 10.2, -1.1, 1.3, 0.2, 1.4, ., 6.7
CCCOc1ccc(CNC(=S)NCc2ccc(OC(C)C)cc2)cc1 in the list: -36.4, 45.5, ., ., ., -0.5, ., -0.6, ., -0.4
COc1cc([N+](=O)[O-])c(N2CCOCC2)c([N+](=O)[O-])c1OC in the list: 19.7, 75.4*, 3.3, 8.9, -0.6, 0.7, 1.6, -8.8, 94.2%, -1.4
